Assay outcomes from PubChem BioAssay.
LANA-H2A inh: blocks KSHV LANA binding to histone H2A/H2B; cell-free LANA-H2A/H2B peptide, fluorescence polarization; inhibition, % (no concentration beside the values); 0.6% of 320,000 active; AID 2629; in the data active = inhibition mostly above about 10%, no sharp cut-off; inactive = mostly below about 6.7%;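 also: stock transfer was 7.5 nL into about 10 µL; 0% = median of vehicle wells and 100% = median of positive control wells; one replicate is shown; the record names a cut of 25% in any replicate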
Target sequence (Q9QR71 whole entry, looked up): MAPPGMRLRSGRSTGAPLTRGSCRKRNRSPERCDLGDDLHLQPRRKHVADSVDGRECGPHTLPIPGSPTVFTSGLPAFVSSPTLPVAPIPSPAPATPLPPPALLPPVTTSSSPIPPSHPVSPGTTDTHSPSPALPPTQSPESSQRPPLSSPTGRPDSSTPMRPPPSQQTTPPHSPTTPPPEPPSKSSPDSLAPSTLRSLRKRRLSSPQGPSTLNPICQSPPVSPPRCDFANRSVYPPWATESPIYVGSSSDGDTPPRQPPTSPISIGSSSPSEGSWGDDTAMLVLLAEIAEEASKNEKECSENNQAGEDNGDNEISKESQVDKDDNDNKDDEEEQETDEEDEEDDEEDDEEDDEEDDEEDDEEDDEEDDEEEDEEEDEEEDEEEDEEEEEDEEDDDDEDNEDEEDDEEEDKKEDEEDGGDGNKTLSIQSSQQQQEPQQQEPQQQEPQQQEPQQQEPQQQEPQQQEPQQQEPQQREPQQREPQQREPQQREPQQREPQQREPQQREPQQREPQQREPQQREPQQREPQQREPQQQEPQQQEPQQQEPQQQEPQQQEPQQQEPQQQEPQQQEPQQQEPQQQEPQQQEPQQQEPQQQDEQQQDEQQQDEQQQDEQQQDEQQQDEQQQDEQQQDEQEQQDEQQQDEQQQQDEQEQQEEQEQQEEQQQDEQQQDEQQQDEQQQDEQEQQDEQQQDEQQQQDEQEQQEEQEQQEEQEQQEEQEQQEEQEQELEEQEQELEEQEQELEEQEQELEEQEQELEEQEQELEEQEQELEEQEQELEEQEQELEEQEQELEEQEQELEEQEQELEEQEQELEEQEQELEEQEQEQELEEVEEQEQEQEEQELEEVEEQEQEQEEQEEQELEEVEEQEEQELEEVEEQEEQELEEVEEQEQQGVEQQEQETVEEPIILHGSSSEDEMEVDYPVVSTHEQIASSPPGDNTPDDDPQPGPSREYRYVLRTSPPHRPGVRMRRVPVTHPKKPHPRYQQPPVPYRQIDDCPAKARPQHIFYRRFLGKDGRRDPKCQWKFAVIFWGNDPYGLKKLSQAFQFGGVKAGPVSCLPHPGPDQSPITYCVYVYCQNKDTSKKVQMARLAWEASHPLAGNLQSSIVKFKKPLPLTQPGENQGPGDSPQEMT
Beta apoptosis: blocks beta cell apoptosis; INS-1E cytokine-induced death, ATP luminescence, 48 h; percent of positive-control rescue, neutral wells zero; protection from apoptosis, % (test concentration not listed); 0.8% of 300,000 active;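 active = all replicates at 75% or more, or half of them and the mean; inconclusive = half reach 75% but not the mean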;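 also: 0% = cytokine-treated negative control wells and 100% = positive control rescue; higher means more ATP so stronger rescue from cytokine killing; wells of about 40 µL received 100 nL stock; the first replicate is given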
RanGTP-Impb inh: disruptors of Ran-importin-beta complex formation – biochemical, FRET, CFP-Ran, YFP-importin-beta, homogeneous, primary screen. cell-free CFP-Ran/YFP-importin-beta FRET ratio. inhibition, % (no concentration beside the values). 1.1% of 300,000 active. AID 2216;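 active = most replicates above 15%; inconclusive = exactly half above 15%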;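 also: 0% = DMSO wells and 100% = Ran loaded with GDP instead of GTP; wells of about 40 µL received 100 nL stock; the first replicate is given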
UCH37 inh: human UCH37 deubiquitinating enzyme inhibition; purified proteasome/UCH37, Ub-AMC cleavage fluorescence; AID 588478; inhibition, % (no concentration beside the values); 0.33% of 330,000 active; Q9Y5K5;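 active = mean of two replicates above 20%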;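 also: 0% = compound-free wells with enzyme and 100% = wells lacking proteasome; stock transfer was 100 nL into about 20 µL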
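Test system – human UCH37 enzyme supplied as purified proteasome complex · Incubation – 30 min preincubation with enzyme, 25 min cleavage at room temperature · Detection – AMC fluorescence from Ub-AMC cleavage, excitation 355 nm, emission 460 nm · Benchmarks – no-proteasome wells (full inhibition) and compound-free wells (no inhibition)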
Beta2AR agonist: activates human beta-2 adrenergic receptor causing internalization; P07550; Am2.2-beta2AR cells, FAP receptor internalization, flow cytometry; reference of the scale not given here; response, % (no concentration beside the values); 0.43% of 340,000 active;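 active = response above a set limit, near 3 SD of response in nonfluorescent compounds, cut at about 42% in these data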;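 also: stock transfer was 100 nL into about 11 µL; a reference agonist was the positive control; negative values mostly stem from fluorescent compounds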
Calb FLC: affects C. albicans growth with fluconazole; C. albicans CaCi-2 (fluconazole-resistant clinical isolate) + fluconazole, Alamar Blue growth, 48 h; 0.57% of 300,000 active; AID 1979; growth inhibition, % (concentration not given with the values);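 active = most replicates above 75%; inconclusive = exactly half above 75%; inactive = most below 75%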;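 also: all wells also contain fluconazole at 8 µg/ml as a sub-toxic cotreatment; 0% = median of DMSO wells and 100% = median of geldanamycin control wells; wells of about 8 µL received 7.5 nL stock; the first replicate is given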
Bfl-1 A1 inh: inhibitors of the anti-apoptotic protein A1, read as caspase activation; caspase activation, % (no concentration beside the values); MEF A1-2A-BIM cells, Caspase-Glo 3/7 luminescence, 3 h; percent of clofoctol response, vehicle zero; 0.066% of 330,000 active;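 active = over half of replicate activation scores above 10%, or exactly half above 10 with the replicate mean above 10; inconclusive = replicate mean below 10 yet half the replicates above 10; inactive = over half of replicates below 10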;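 also: wells of about 30 µL received 50 nL stock; many hits fall short of the cut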
T cruzi repl: blocks replication of Trypanosoma cruzi; inhibition, % (concentration not given with the values); 1.4% of 300,000 active; T. cruzi beta-gal in NIH3T3, luminescence, 90 h;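 active = mean inhibition across valid replicates above about 55%, limit read from the data; inconclusive = mean below that limit but half or more replicates reach it; inactive = mean below it, under half of replicates reach it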;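 also: signal also drops with host cell toxicity which is not excluded here; 0% = plate median of DMSO wells and 100% = zero luminescence signal; higher percent means less beta-gal luminescence so fewer parasites; stock transfer was 50 nL into about 50 µL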
The depositor's hits bear a star; i = inactive; ? = inconclusive; . = no result given.

SMILES | LANA-H2A inh | Beta apoptosis | RanGTP-Impb inh | UCH37 inh | Beta2AR agonist | Calb FLC | Bfl-1 A1 inh | T cruzi repl
CCN(CC)S(=O)(=O)c1ccc(N2CCCC2)c(NC(=O)c2c(-c3ccccc3)noc2C)c1 | -7.0 | -9 | 3.5 | . | 1 | 4 | -1.6 | 6
CN(C)C(=O)C1CC(=O)OC12CCCCC2 (stereo not given) | 0.4 | -1 | -1.4 | 8.3 | -3 | 5 | 0.0 | -6
CC(C)(C)NC(=O)CSc1nnc(Cc2ccc3c(c2)OCO3)n1C1CCCCC1 | 0.1 | -1 | -0.9 | 4.2 | -28 | 3 | 0.4 | 16
CCn1c(=O)c2cc(C(=O)NCCC(C)C)sc2c2ccccc21 | 0.8 | 2 | 1.3 | -13 | 15 | 17 | -0.1 | 5
CCC(=O)Nc1cc(-c2nnc(OC)c3ccccc23)ccc1N1CCOCC1 | 3.7 | -5 | -1.5 | 1.0 | -10 | -11 | 1.3 | 2
COCCn1c(=S)[nH]c2cc(C(=O)NCCc3ccccc3)ccc2c1=O | -2.4 | 5 | 1.7 | 3.8 | 4 | 14 | -1.1 | 6
O=C(COC(=O)CNC(=O)C1CCCCC1)Nc1ccc(Cl)cc1F | -0.1 | -6 | -4.1 | -1.8 | 5 | -14 | -0.2 | -10
Cn1c2ccccc2c2nnc(NN)nc21 | 0.2 | 1 | -2.3 | 8.3 | -18 | 5 | -0.6 | 39
Cc1ccc(S(=O)(=O)N2CCN(C(=O)CSc3nc4ccccc4c(=O)[nH]3)CC2)c(C)c1 | -0.5 | -5 | ? | 3.1 | 0 | 63 | -0.6 | 16
O=C(CCNC(=O)C1CCN(S(=O)(=O)c2ccccc2)CC1)NCc1cccc(Cl)c1 | -1.4 | . | 6.9 | 3.8 | 15 | -2 | -1.0 | -1
CCOc1ccccc1OCC(=O)Nc1nc2ccccc2[nH]1 | -6.8 | 2 | -0.7 | 4.1 | -1 | 22 | -0.5 | 9
CCCc1nnc(SCC(=O)Nc2ccccc2F)o1 | -0.4 | -5 | 1.7 | 1.8 | -3 | 1 | -0.2 | -5
CCN1CCN(c2nc3ccccc3nc2NS(=O)(=O)c2ccc(NC(C)=O)cc2)CC1 | 2.3 | 2 | 0.6 | -51 | 2 | 3 | ? | 1
CN1C(=O)c2ccccc2C(C(=O)O)C1c1cn(C)c2ccccc12 (stereo not given) | -0.4 | -4 | 0.4 | 1.5 | -5 | 4 | 0.6 | -7
OCCCn1c(-c2ccccc2)n[nH]c1=S | -0.4 | -2 | -2.9 | 1.8 | -3 | -9 | -0.6 | -6
COCc1ccc(C(=O)N2CCCC(Nc3ccc(C(C)C)cc3)C2)o1 (stereo not given) | -4.9 | -2 | -2.3 | 3.7 | 3 | -7 | 0.1 | -2
O=C1c2ccccc2CN1CCNC(=S)NC1CCCCC1 | 7.8 | -3 | 7.2 | 0.3 | -3 | 11 | 0.0 | 10
Cc1ccc(/C=N/NC(=O)CSc2nc3ccccc3n2C)s1 | 3.0 | -5 | -0.2 | . | -15 | 13 | 1.2 | -10
CCN1C(=O)C(=O)N(CC(=O)NC(C)CCc2ccccc2)C1=O (stereo not given) | -2.7 | 0 | . | -0.4 | -10 | . | 0.9 | .
Cc1ccc(N2C(=O)c3cccc([N+](=O)[O-])c3C2=O)cc1C | 3.1 | -1 | 2.8 | 0.8 | 12 | 0 | 0.4 | -7

Profiles, quoted from the list. Screens in order: LANA-H2A inh | Beta apoptosis | RanGTP-Impb inh | UCH37 inh | Beta2AR agonist | Calb FLC | Bfl-1 A1 inh | T cruzi repl
`CCN1C(=O)C(=O)N(CC(=O)NC(C)CCc2ccccc2)C1=O` (stereo not given) in the list: -2.7 | 0 | . | -0.4 | -10 | . | 0.9 | .
`O=C1c2ccccc2CN1CCNC(=S)NC1CCCCC1` in the list: 7.8 | -3 | 7.2 | 0.3 | -3 | 11 | 0.0 | 10

Other structures
SMILES | LANA-H2A inh | Beta apoptosis | RanGTP-Impb inh | UCH37 inh | Beta2AR agonist | Calb FLC | Bfl-1 A1 inh | T cruzi repl
Cc1csc2nc(CN3CCN(CC(=O)N(C)C)CC3)cc(=O)n12 | 4.4 | -7 | 2.0 | -7.1 | -3 | 2 | -0.6 | -2
CC1(C)Cc2ccccc2C(c2cc3ccccc3oc2=O)=N1 | 1.9 | -2 | 3.7 | 36* | 5 | -3 | ? | 8
CCOc1ccc(N=CC2=C(O)CC(c3ccco3)CC2=O)cc1 (stereo not given) | . | 1 | -2.3 | . | -4 | -6 | -0.3 | -9
CCOC(=O)c1cnc2c(C(=O)OCC)cnn2c1N | -0.1 | -4 | -2.2 | -11 | 4 | 1 | -0.3 | -24
Cc1c(C(c2cc(O)ccc2Cl)c2c(C)n(C)n(-c3ccccc3)c2=O)c(=O)n(-c2ccccc2)n1C | 3.4 | -1 | 3.5 | . | -9 | 24 | 1.1 | -2
CCNc1nc(NC(C)C)nc(OCC)n1 | -5.8 | -2 | -4.6 | 0.9 | -3 | -7 | 0.6 | -35
CCOC(=O)c1oc2nc3c(cc2c1N)CCCC3 | 0.2 | 1 | 12 | -120 | -2 | -30 | 0.4 | 0
Cc1cc(Nc2ccccc2)c2c([N+](=O)[O-])c(C)cc(C)c2n1 | -3.7 | 3 | -1.3 | 4.5 | -4 | -5 | -0.4 | 19
COC(=O)C1C(c2ccc(Br)cc2)Nc2nnc(C(F)(F)F)n2C1(C)O (stereo not given) | -0.1 | -3 | -0.5 | 0.3 | 6 | 7 | -0.7 | -11
COc1ccc(CC(=O)OC(C)C(=O)Nc2ccc(Cl)cn2)cc1 (stereo not given) | 0.0 | 11 | . | -0.8 | -5 | . | -2.2 | .
COC(=O)c1cc(OC)c(OC)cc1NC(=O)c1c(-c2ccccc2)noc1C | -1.2 | -7 | . | -0.2 | 31 | 6 | -1.0 | -6
CC(NC(=O)C12CC3CC(C1)CC(n1cncn1)(C3)C2)C12CC3CC(CC(C3)C1)C2 (stereo not given) | -3.6 | . | -2.2 | 3.9 | 1 | 2 | 0.3 | 24
COCC(C)n1c(SCC(=O)NC(=O)NCc2ccccc2)nc2ccccc2c1=O (stereo not given) | -2.1 | -8 | . | 2.8 | 8 | . | 0.3 | .
COCCNC(=O)CN(C(=O)CCC(=O)Nc1nccs1)c1ccc2c(c1)OCO2 | -0.1 | 2 | 1.7 | 3.8 | -7 | -13 | 1.0 | -2
Cc1cccc(NC(=O)CCc2nnc3ccc(NCc4ccco4)nn23)n1 | -1.1 | -3 | 1.4 | 6.3 | -2 | 17 | -1.1 | -19
O=C(/C=C/c1ccc(OCCCF)cc1)Nc1ccnc(-c2ccncc2)n1 | -6.9 | -12 | -0.3 | -1.5 | -3 | -1 | -0.1 | 47
Cc1ccc(NC2CCCN(C(=O)c3ccccn3)C2)cc1C (stereo not given) | -0.8 | -1 | 1.5 | 1.5 | 2 | 7 | 0.1 | -2
COc1ccccc1/C=C/C(=O)NNC(=O)c1cccs1 | -0.4 | -7 | -3.0 | -13 | -3 | 44 | -0.3 | -2
CCOC(=O)COn1c(-c2cccc(Cl)c2)nc2ccc([N+](=O)[O-])cc21 | -10 | 31 | -4.3 | 4.9 | -5 | 7 | -5.2 | -5
O=C(NCCc1nc2ccccc2[nH]1)C1CCC(=O)N(CCc2cccc(F)c2)C1 (stereo not given) | 5.5 | -2 | 6.7 | 7.8 | 5 | -1 | 0.7 | -1
CCN(CC)CCCN1C=C2C(=O)C(C)(OC(=O)CCC(=O)OC)C(=O)C=C2C=C1C1CC1 (stereo not given) | -2.5 | -5 | -0.9 | 7.2 | -2 | 0 | 0.9 | -8
COC(=O)[C@H](Cc1ccccc1)NC(=O)[C@@H]1C[C@H]1[C@@H](NC(=O)OCc1ccccc1)c1ccccc1 | 14* | . | 0.3 | 1.4 | 22 | 2 | -0.1 | -7
O=C(CNc1ccccc1)NNC1=NCCC1 | 4.2 | -3 | 3.9 | 1.4 | 8 | -14 | 0.2 | -2
COCCOC(=O)C1=C(C)N(Cc2ccccc2)C(=O)NC1c1cccc(OC)c1OC (stereo not given) | 1.6 | -3 | -1.0 | 1.8 | -1 | -11 | 0.1 | 0
O=C(NNC(=O)C(c1ccccc1)c1ccccc1)c1cccs1 | -2.2 | 2 | 3.3 | 1.1 | 2 | 14 | -1.3 | -13
CC(Sc1ncn[nH]1)C(=O)c1c(N)n(C)c(=O)n(C)c1=O (stereo not given) | 0.8 | -11 | . | 0.1 | 1 | . | -0.8 | .
CC1CCCC(C)N1CCCNC(=O)c1cc2c(s1)-c1ccccc1OC2 (stereo not given) | -4.4 | -6 | 2.8 | . | 17 | 10 | -1.6 | 13
CSc1cccc(NC(=O)c2nnn(CC(=O)Nc3cc(C)cc(C)c3)c2N)c1 | 0.1 | . | 0.4 | 1.8 | -14 | -12 | 0.2 | -8
COc1ccc(N2CC(C(=O)OCC(=O)c3ccc(C)cc3)CC2=O)cc1 (stereo not given) | -0.7 | -2 | ? | 3.1 | 1 | 8 | -0.7 | -23
COc1cc(OC)cc(C(=O)N2CCCC(c3nc(-c4ccc(C)o4)no3)C2)c1 (stereo not given) | -0.5 | -1 | 2.2 | -0.5 | -2 | 9 | 0.1 | -6
CC(C)(C)OC(=O)N1CCC[C@H]1C(=O)NCc1ccc(Cl)cc1Cl | 2.9 | 0 | 0.5 | 4.0 | -1 | 5 | -0.8 | -2
COc1ccc(CN=C2NC(=O)CC(C(=O)Nc3ccccc3C)S2)cc1 (stereo not given) | -1.0 | -2 | 5.3 | 3.5 | 2 | -13 | -0.5 | 1
COc1cccc(O[C@@H]2O[C@@H]3COC(C)(C)O[C@H]3[C@H](O)[C@H]2NC(C)=O)c1 | -0.8 | 0 | 1.6 | 4.1 | -5 | -19 | -0.3 | -17
COc1ccc(C(=O)C[n+]2cccc3cc(C)ccc32)cc1 | -3.0 | -3 | -2.0 | -2.2 | -69 | 3 | 0.1 | 26
CCc1ccc(C(C)NC(=O)c2cccs2)cc1 (stereo not given) | -2.8 | . | 2.6 | 2.0 | 6 | 0 | 0.3 | -11
COCCN(C(=O)c1cc2c(s1)CCCCC2)c1c(N)n(Cc2ccccc2)c(=O)[nH]c1=O | 0.4 | -2 | -2.4 | 3.7 | -2 | -6 | 0.0 | 9
CCOC(=O)/C(=C\C=C1/Sc2ccccc2N1CC)C(C)=O | . | -8 | 14 | 15 | -7 | 4 | -0.3 | 29
Cn1c(=O)c2c(nc(N/N=C/c3cccs3)n2C)n(C)c1=O | 0.5 | 4 | -1.6 | . | -7 | -3 | -1.0 | 1
COc1cccc(-c2nnc(NC(C)=O)o2)c1 | -2.0 | 0 | 3.0 | 1.2 | 10 | -9 | 0.2 | -8
COc1cc(/C=C/C(=O)Nc2ccccc2C(F)(F)F)cc(OC)c1OC | -2.6 | -5 | 2.9 | . | . | -3 | -0.6 | -7
O=[N+]([O-])c1ccc(/C=C/c2nc3ccc([N+](=O)[O-])cc3[nH]2)cc1 | i | 11 | 2.5 | 11 | 5 | 33 | -0.8 | -10
Cc1ccc(S(=O)(=O)N(C)CC(=O)NCCCn2ccnc2)cc1 | -3.4 | . | -1.0 | -1.3 | -1 | -5 | -1.7 | -7
